Source: PubChem (Johns Hopkins Ion Channel Center)
KCNQ2 pot: enhances the rat KCNQ2 potassium channel | O88943 | CHO-K1 KCNQ2, FluxOR thallium flux fluorescence; hits give high values | B-score at 10 µM | 310,000 compounds, 0.54% hits | AID 2239;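 active means fluorescence ratio B-score at least 3 SD of library B-scores, with initial fluorescence B-score within 3 SD, cut at about 5.3 in these data; same plate scores as AID 2156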;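 further: B-score of peak minus minimum over baseline fluorescence ratio after K+ and Tl+ stimulus; positive B-score means potentiation of KCNQ2 with more thallium influx and brighter signal; only the inactives scoring about 0 or higher are listed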
Target sequence (O88943 whole entry, looked up): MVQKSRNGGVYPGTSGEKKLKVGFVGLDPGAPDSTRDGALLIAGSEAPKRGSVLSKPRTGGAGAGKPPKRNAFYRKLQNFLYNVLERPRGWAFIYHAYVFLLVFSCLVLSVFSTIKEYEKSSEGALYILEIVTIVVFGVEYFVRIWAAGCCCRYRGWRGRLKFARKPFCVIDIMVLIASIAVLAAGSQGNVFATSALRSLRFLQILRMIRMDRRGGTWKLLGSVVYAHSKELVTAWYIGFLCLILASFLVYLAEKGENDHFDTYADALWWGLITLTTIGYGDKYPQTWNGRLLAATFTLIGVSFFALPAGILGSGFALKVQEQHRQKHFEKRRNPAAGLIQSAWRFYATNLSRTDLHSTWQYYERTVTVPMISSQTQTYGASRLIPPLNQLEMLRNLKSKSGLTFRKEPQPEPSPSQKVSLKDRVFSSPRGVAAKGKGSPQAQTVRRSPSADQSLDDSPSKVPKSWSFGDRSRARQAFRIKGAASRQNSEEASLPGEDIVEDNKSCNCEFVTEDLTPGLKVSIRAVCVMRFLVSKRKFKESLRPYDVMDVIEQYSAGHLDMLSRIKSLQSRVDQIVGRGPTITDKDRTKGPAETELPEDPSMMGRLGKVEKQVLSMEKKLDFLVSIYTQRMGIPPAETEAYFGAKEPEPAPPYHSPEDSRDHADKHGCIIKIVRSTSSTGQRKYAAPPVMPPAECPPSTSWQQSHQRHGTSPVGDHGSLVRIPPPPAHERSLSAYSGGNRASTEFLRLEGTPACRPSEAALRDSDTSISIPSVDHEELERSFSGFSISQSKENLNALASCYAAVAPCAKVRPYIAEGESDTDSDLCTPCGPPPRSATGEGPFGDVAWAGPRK
KCNQ2 pot baseline: recorded beside KCNQ2 pot, whose call it bears; B-score; compound at 10 µM; measured here: initial fluorescence intensity artifact check;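 brightness before thallium and not channel activity; 0 = typical well and far values either way flag optical interference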
The depositor's hits bear a star. Not all compounds are listed. The share of hits here may be higher or lower than overall.

SMILES	KCNQ2 pot	KCNQ2 pot baseline
CCOC(=O)c1c(/N=C/c2c(O)n(-c3cccc(C)c3)c(=O)[nH]c2=O)sc2c1CCCC2	0.97	-0.97
Nc1nnc(CCN2CCCCC2)s1	0.34	0.95
COc1ccc(C(=O)C2CCCN(Cc3ccc(C)s3)C2)c(OC)c1 (centres undefined)	0.19	-1.66
O=P(O)(O)COc1ccccc1O	0.04	0.29
CCC(=NCCCn1ccnc1)c1c(O)n(-c2ccccc2)c(=O)[nH]c1=O	0.01	0.11
COc1ccc(CN2CCN(c3ccccc3)CC2)c(C)c1C	0.71	1.31
O=C(NC(=C(Cl)Cl)P(=O)(c1ccccc1)c1ccccc1)c1ccccc1	0.59	1.11
CCCCn1c(O)c(C(C)=NCc2ccco2)c(=O)[nH]c1=O	1.75	-2.68
Cc1ccc(C2N(c3cc(C)on3)C(=O)C3CCCN32)cc1 (centres undefined)	0.22	0.78
CCC(=O)OC1(c2ccccc2)CCN(C)CC1C (centres undefined)	0.45	-0.68
CCOc1cccc(=NC2CCCCC2)c2c(C)[nH]c(C)c12	4.25	-3.69
CNC(=O)ON(C(=O)NC)C1N(C)C(=S)SC1(C)C (centres undefined)	0.67	-2.04
Clc1cccc(N2CCNCC2)n1	0.01	1.07
O=[N+]([O-])c1cc(F)c(N2CCCCCC2)cc1N1CCNCC1	0.01	-0.06
CC(C)N1CCN(Cc2cccc3c2OCO3)CC1CCO (centres undefined)	0.53	0.15
COc1ccccc1CCNCc1cccc(C(F)(F)F)c1	0.14	0.02
O=C1C2CCN(CC2)C1Cc1ccccc1O (centres undefined)	0.28	1.08
CC(=NCCCN1CCOCC1)c1c(O)n(-c2ccccc2C)c(=O)[nH]c1=O	0.04	0.06
O=C1/C(=C\c2cc3c(cc2Br)OCO3)N2CCC1CC2	0.18	0.42
Cc1cccc(N2C(=O)/C(=C/N3CCN(C(=O)c4ccco4)CC3)C(=O)NC2=S)c1	1.26	0.02
CC(=O)N1CCN(CCN=Cc2c(O)n(-c3ccc(C)cc3)c(=S)[nH]c2=O)CC1	1.13	0.68
CCOc1ccc(CNCCc2ccc3c(c2)OCO3)cc1	0.74	-1.18
Cc1ccc(OCCOc2cccc(C=C3C(=O)NC(=O)NC3=O)c2)cc1	1.15	-1.29
O=C(Cn1ncn2c(cc3cc(F)ccc32)c1=O)N1CCC2(CC1)OCCO2	1.18	-0.77
COc1ccccc1-n1c(CNCC2CCCO2)nc2ccccc2c1=O (centres undefined)	0.6	-1.4
COc1ccc(-n2c(O)c(C(C)=NCCCn3ccnc3)c(=O)[nH]c2=O)cc1	0.11	0.78
OCCN1C2CCC1CC(O)(c1ccc(F)cc1)C2 (centres undefined)	0.37	0.09
COc1ccc(CCNCc2ccccn2)cc1OC	0.04	-0.82
COc1ccc(OC)c(NC2=NCCS2)c1	0.33	-1.33
Cc1ccc(/C=C2/C(=O)NC(=O)N(Cc3ccc(F)cc3)C2=O)o1	0.5	0.17
CCn1ccnc1CN1CCCC(C(=O)c2cccc(C(F)(F)F)c2)C1 (centres undefined)	1.16	0.04
C[n+]1c(-c2ccccc2)sc2ccccc21	0.97	-1.27
Cc1cc(C=O)c(C)n1C1CC1	0.62	0.07
CC(=Nc1ccc2c(c1)CCC2)c1c(O)n(-c2ccccc2)c(=O)[nH]c1=O	0.09	0.2
COc1ccc2[nH]cc(C(=O)CN(C)C)c2c1	1.09	-1.2
C=CCN1C(=O)/C(=C/c2ccc3c(c2)CCCN3CCC)C(=O)NC1=S	0.04	0.1
Cc1cccc(-n2c(O)c(/C=N/Nc3nc4c(c(=O)n(C)c(=O)n4C)n3C)c(=O)[nH]c2=S)c1	0.54	2.05
CCOC(=O)C(NC(=O)C(Cc1ccc(N(CCCl)CCCl)cc1)NC(C)=O)C(C)C (centres undefined)	1.11	1.02
COc1ccc(CN2C(=O)NC(=O)/C(=C\c3cc(OC)c(OC)c(OC)c3)C2=O)cc1	0.32	-1.58
COc1ccc(OC)c(N2C(=O)/C(=C/c3ccco3)C(=O)NC2=S)c1	1.26	0.04
C=CCN1C(=O)/C(=C/c2cc(C)n(-c3cccnc3)c2C)C(=O)NC1=S	1.34	1.98
O=C(CCNS(=O)(=O)c1ccccc1)Nc1ccc(Cl)cc1C(=O)c1ccccc1	0.8	1.38
CCOP(=O)(OCC)C(O)c1cccc([N+](=O)[O-])c1 (centres undefined)	2.42	-0.15
Oc1ccc2c3c1OC1C(O)CC[C@@]4(O)[C@@H](C2)N(CC2CCC2)CC[C@]314 (some centres undefined)	0.4	-0.44
C=C1C(=O)O[C@H]2[C@H]1[C@H](OC(=O)CC(=O)O[C@@H]1C[C@@H](C)[C@@H]3C=CC(=O)[C@@]3(C)[C@H]3OC(=O)C(=C)[C@H]13)C[C@@H](C)[C@H]1C=CC(=O)[C@]12C	0.47	-0.11
COC(=O)C1=C(c2ccc(S(C)(=O)=O)cc2)C[C@@H]2CC[C@H]1N2C(=O)NCCS(C)=O (some centres undefined)	0.02	-2.53
O=c1[nH]c(=S)n(-c2ccc(Cl)cc2)c(O)c1C=Nc1ccc(N2CCOCC2)cc1	1.34	0.21
CCOc1ccc(NC2=NCCCS2)cc1	1.36	-0.97
CN1C(=O)C2C[C@@]3(Br)c4ccccc4N(OOSc4ccccc4)[C@H]3N2C(=O)[C@@H]1Cc1ccccc1 (some centres undefined)	0.97	-0.4
Cc1c(C(=O)O)cc(-c2ccccc2)n1Cc1ccccc1	0.07	-0.71
CCC12CN3CCN(CC(C3)/C1=N\O)C2	1.81	0
O=c1cccc2n1CC1CC2CN(Cc2ccc3c(c2)OCO3)C1 (centres undefined)	1.79	0.25
O=c1[nH]c(=S)n(-c2ccccc2F)c(O)c1C=NCc1ccco1	1.07	0.06
C=C(c1ccccc1)P(=O)(O)O	1.34	-0.07
O=c1[nH]c(=O)n(Cc2ccc(F)cc2)c(O)c1C=NCCCO	0.03	0.49
CCC(=O)N1c2ccc(S(=O)(=O)CCC(=O)N3CCC4(CC3)OCCO4)cc2CC1C (centres undefined)	0.92	1.36
S=P(Nn1cnnc1)(c1ccccc1)c1ccccc1	0.13	-0.06
Cc1ccc(C2=NCC(=O)Nc3ccc(Br)cc32)cc1	0.16	-3.42
CCN1CCN(c2cc(N3CCCC3)c([N+](=O)[O-])cc2F)CC1	0.12	-1.74
O=[N+]([O-])c1ccc(N2CCNCC2)cc1NCc1ccco1	0.61	0.02

New compounds follow
SMILES	KCNQ2 pot	KCNQ2 pot baseline
C=Cn1ccnc1P(=S)(c1nccn1C=C)c1nccn1C=C	2.44	-1.13
CC(=NCc1ccco1)c1c(O)n(Cc2ccccc2)c(=O)[nH]c1=O	0.75	0.8
COc1ccc(C(=O)C2CCCN(Cc3ccccn3)C2)c(OC)c1 (centres undefined)	0.47	-0.11
O=C(CSC1c2ccccc2-c2ccccc21)N/N=C/c1ccccc1O	1	-3.27
CC(=NCCN1CCOCC1)c1c(O)n(C2CCCCC2)c(=O)[nH]c1=O	0.95	-0.09
C/C=C(\C)C(=O)N[C@@H](c1ccccc1)[C@@H](O)C(=O)O[C@H]1C[C@@]2(O)[C@@H](OC(=O)c3ccccc3)C3[C@](C)(C(=O)[C@H](OC(C)=O)C(=C1C)C2(C)C)[C@@H](O)C[C@H]1OC[C@@]31OC(C)=O (some centres undefined)	0.54	-0.06
CN(C)c1ccc(NC(=O)CN2C(=O)CN=C(c3ccccc3)c3ccccc32)cc1	1.03	-0.19
COc1cccc(N2C(=O)NC(=O)/C(=C/c3ccc4c(c3)Cc3ccccc3-4)C2=O)c1	0.39	-2.14
COC12C(COC(N)=O)C3=C(C(=O)C(C)=C(N)C3=O)N1CC1C2N1C (centres undefined)	0.34	1.87
O=C(COc1ccc(Cl)cc1)NCCc1cnc[nH]1	1.07	-0.01
CCC(C)n1c(O)c(C(c2ccccn2)c2c(O)n(C(C)CC)c(=S)[nH]c2=O)c(=O)[nH]c1=S (centres undefined)	1.2	0
CC(=O)c1ccc(OCC(=O)N2CCCC(N(C)Cc3ccccc3)C2)cc1 (centres undefined)	1.59	-0.67
c1ccc(C[n+]2ccccc2)cc1	0.73	-1.74
CC(C)C/C(=N/O)c1c[nH]c2ccccc12	0.5	-0.46
O=C(c1ccc(Cl)cc1)C12CN3CN(CN(C3)C1)C2	0.56	-0.33
COc1ccc(CNC(=O)CCC(=O)N2C[C@H]3C[C@H](C2)c2cccc(=O)n2C3)cc1OC	1.07	-1.86
COc1ccc(C2(c3cccc(O)c3OC)CCN(C(C)=O)CC2)cc1O	1.96	-1.02
CCn1c(=O)cc(SCC(=O)N2CCC3(CC2)OCCO3)c2ccccc21	0.43	1.05
O=[N+]([O-])c1ccc(NC2CCCC2)c2ccncc12	0.13	0.3
CC(=NCC1CCCO1)c1c(O)n(C)c(=O)n(C)c1=O (centres undefined)	0.77	-0.62
CN(C)C(CNC(=O)Cc1c(Cl)cccc1Cl)c1ccccc1 (centres undefined)	0.76	1.24
O=C1NC(=O)N(CCC2=CCCCC2)C(=O)/C1=C\c1cccs1	2.06	-1.1
CC12CN3CC(C)(CN(C1)C31CCSCC1)C2=O	0.54	0.1
O=C(C1CCC(=O)N1Cc1ccc(F)cc1)N1CCC2(CC1)OCCO2 (centres undefined)	0.83	0.64

Shown comma-delimited: part of the list above.
molecule,KCNQ2 pot,KCNQ2 pot baseline
CC12CN3CC(C)(CN(C1)C31CCSCC1)C2=O,0.54,0.1
O=C(C1CCC(=O)N1Cc1ccc(F)cc1)N1CCC2(CC1)OCCO2 (centres undefined),0.83,0.64

The list goes on.
SMILES	KCNQ2 pot	KCNQ2 pot baseline
CN(C)C(=O)Oc1c(Cl)cc(Cl)c2cccnc12	1.09	-0.14
S=C(NCCc1ccccc1)NCCc1cnc[nH]1	0.08	0.75
Cn1c(=O)cc(OCC(=O)N2CCN(C3CCCCC3)CC2)c2ccccc21	1.05	0.01
CC(C)(C)c1ccc(O)c(CN2CCN(c3ccccc3)CC2)c1	0.76	-0.99
N#CCN1CCN(c2ccc(C(F)(F)F)cc2)CC1	0.23	-0.36
O=C1NC(c2cccnc2)Nc2sc3c(c21)CCCC3 (centres undefined)	4.31	-1.22
Cc1ccc(-n2c(O)c(C=NCCN(C)C)c(=O)[nH]c2=O)cc1	1.24	-0.79
O=C(Nc1ccc(Cl)cc1C(=O)c1ccccc1)c1ccco1	0.45	0.97
C[C@]12CC[C@H](O)C[C@@H]1CC[C@@H]1[C@@H]2CC[C@]2(C)[C@@H](C(=O)O)C[C@@H]12	0.03	0
Cn1ccnc1P(=S)(c1nccn1C)c1nccn1C	1.3	1.1
CCCCn1c(O)c(/C=N/NC(=O)c2ccncc2)c(=O)[nH]c1=S	0.06	-0.12
Cc1nc2cc([N+](=O)[O-])ccc2c(=O)n1-c1cccc(Br)c1	3	0
CCN1C(=O)C(=C/C=C/c2ccco2)C(=O)N(CC)C1=S	0.8	1.11
O=C1NC(=O)N(Cc2ccccc2)C(=O)/C1=C/c1cnn(-c2ccccc2)c1	0.01	0.78
CCOC(=O)C1=C(C)OC(N)=C(C(=O)OCC)C12C(=O)Nc1ccc(Br)cc12 (centres undefined)	1.26	-0.73
Cc1ccc(CN2CCN(Cc3ccccc3F)CC2)cc1	0.52	-1.29
CCOCCCn1c(N)c(C(=O)Nc2sc3c(c2C(=O)OC)CCCC3)c2nc3ccccc3nc21	0.55	-1.27
CCCNC(=O)c1c(N)n(Cc2ccc3c(c2)OCO3)c2nc3ccccc3nc12	1.03	-0.16
Cc1nonc1OCCNc1ccc([N+](=O)[O-])c2cccnc12	0.57	0.02
O=C(NCc1cccnc1)NC1CCCCC1	0.63	0.31
COc1ccc(/C=C2/C(=O)NC(=O)N(Cc3ccco3)C2=O)cc1	0.6	1.03
COC(=O)C1=C(c2cc3ccccc3o2)C[C@@H]2CC[C@H]1N2C(=O)N1CCCC1	0.01	-0.03
CNC(=O)Oc1ccc2c(c1)C(=O)c1ccccc1CO2	0.28	-0.17
CCCc1nnc(NC(=O)CCC(=O)N2CCC3(CC2)OCCO3)s1	0.41	-2.49
Cc1cc(N(CCCl)CCCl)ccc1/C=N/N=C(\N)c1cnccn1	0.27	-2.28
N#CCCn1cc(C(=O)Nc2ccc([N+](=O)[O-])cc2)c(-c2ccc3c(c2)OCCO3)n1	0.02	-0.95
COc1ccc(CCNCc2ccc(Br)cc2)cc1OC	0.21	1.75
CCCCC1C(=O)NC(=S)NC1=O	0.64	-0.97
CNC(C(=O)c1ccccc1)C(OC(C)C)c1ccc(Cl)cc1 (centres undefined)	0.02	0.38
NCCCCCC(=O)OC1N=C(c2ccccc2Cl)c2cc(Br)ccc2NC1=O (centres undefined)	0.72	-1.17
C[C@@H]1C(=O)O[C@@H]2[C@H](O)C34[C@@H]5OC(=O)C3(O[C@H]3OC(=O)[C@H](O)C34[C@H](C(C)(C)C)[C@H]5O)[C@@]12O (some centres undefined)	0.67	0.25
COc1ccc(CNCCc2c[nH]c3ccccc23)c(OC)c1OC	1.25	-0.93
CCN1CCN(S(=O)(=O)c2ccc(Cl)nc2)CC1	1.56	-0.41

Single records, as listed above. Screens in order: KCNQ2 pot, KCNQ2 pot baseline
`CC(=NCC1CCCO1)c1c(O)n(C)c(=O)n(C)c1=O` (centres undefined) in the list: 0.77, -0.62
`CC(=NCCN1CCOCC1)c1c(O)n(C2CCCCC2)c(=O)[nH]c1=O` in the list: 0.95, -0.09
`Cn1ccnc1P(=S)(c1nccn1C)c1nccn1C` in the list: 1.3, 1.1
`Cc1ccc(OCCOc2cccc(C=C3C(=O)NC(=O)NC3=O)c2)cc1` in the list: 1.15, -1.29

Structures listed so far with a cyano group, in the order listed:
SMILES	KCNQ2 pot	KCNQ2 pot baseline
N#CCN1CCN(c2ccc(C(F)(F)F)cc2)CC1	0.23	-0.36
N#CCCn1cc(C(=O)Nc2ccc([N+](=O)[O-])cc2)c(-c2ccc3c(c2)OCCO3)n1	0.02	-0.95
